High-throughput results: PubChem, Broad Institute
A1 inhib: A1 inhibition; MEF A1-2A-BIM cells, caspase-Glo luminescence, 3 h; percent of clofoctol signal, DMSO as zero; caspase activation, % (test concentration not listed); actives 0.51% (n = 21,000); AID 2241;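 active = most replicate scores above 10, or exactly half above 10 with mean activity above 10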;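 note: effector caspase 3 and 7 activity cleaving a DEVD luciferin substrate; 50 nL library stock added to about 30 µL; numbers are from one replicate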
BJeLR viab HTS: BJeLR cell viability reduction. BJeLR fibroblasts viability, CellTiterGlo ATP luminescence, 48 h; HRASV12, hTERT and SV40 LT/ST transformed. viability loss activity score, % (no concentration beside the values). actives 0.64% (n = 30,000). AID 2275; in the data active = viability loss activity score above about 50%; about a fifth of its hits are not listed in these tables;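 note: higher score means fewer live cells and less ATP luminescence; stock transfer was 50 or 100 nL into about 30 µL; 0% = vehicle wells and 100% = a reference killing control; one replicate is shown; the record names a cut of 85%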
An asterisk follows results filed as active; . = no result given. This is a subset (hit frequency here may not be typical).

Fields – A1 inhib	BJeLR viab HTS
Cc1onc(C(=O)NN)c1-c1csc(COc2ccc(Cl)cc2)n1
 : -5.3	8.0
CNC[C@@H]1Oc2ccc(NC(=O)Nc3ccc4c(c3)OCO4)cc2C(=O)N([C@H](C)CO)C[C@H]1C
 : 0.8	-1.8
COc1ccc(-c2nc3cc4c(cc3o2)Oc2ccccc2N4)cc1
 : .	-3.0
C=C1CC[C@@H]2C(C)(C)[C@H](O)CC[C@@]2(C)[C@@H]1COc1ccc2ccc(=O)oc2c1
 : -0.4	-1.4
COc1ccc(CN(C)C[C@@H]2Oc3ccc(NS(=O)(=O)c4cn(C)cn4)cc3C(=O)N([C@@H](C)CO)C[C@@H]2C)cc1
 : 0.1	-2.8
Cc1cccc(C(=O)Oc2ccc(C)c(C)c2)c1
 : -3.2	0.5
C[C@@H]1CN([C@H](C)CO)C(=O)c2cc(NS(=O)(=O)c3cccs3)ccc2O[C@@H]1CN(C)C(=O)Nc1cccc2ccccc12
 : 0.3	2.4
CNC[C@@H]1Oc2ccc(N)cc2C(=O)N([C@H](C)CO)C[C@H]1C
 : 0.5	1.0
C[C@@H]1CN([C@H](C)CO)C(=O)c2cccc(NC(=O)c3nc4ccccc4s3)c2O[C@@H]1CN(C)C(=O)Nc1ccc(C(F)(F)F)cc1
 : .	1.7
COc1ccc(S(=O)(=O)Nc2ccc3c(c2)C(=O)N([C@H](C)CO)C[C@H](C)[C@@H](CN(C)Cc2ccc(C(=O)Nc4ccccc4N)cc2)O3)cc1
 : .	1.2
Cc1noc(C)c1S(=O)(=O)Nc1ccc2c(c1)C(=O)N([C@H](C)CO)C[C@@H](C)[C@H](CN(C)C(=O)Nc1ccc(C(F)(F)F)cc1)O2
 : -0.5	2.5
Cc1ccc(OCc2n[nH]c(=S)n2C2CCCCC2)c2c1CCC2
 : 0.3	-1.7
N#CC(C#N)(Cc1ccccc1)Cc1ccccc1
 : -1.4	4.6
Cc1nc(CNS(=O)(=O)c2cccs2)cs1
 : 1.1	0.5
COc1cc2c(Cc3ccc(OC)c(OC)c3)nccc2cc1O
 : -0.6	13
Cc1ccc(S(=O)(=O)NCCc2cc3ccc(C)cc3[nH]c2=O)cc1
 : .	2.0
CC(C)NC(=O)Nc1ccc2c(c1)C(=O)N([C@@H](C)CO)C[C@@H](C)[C@H](CN(C)S(=O)(=O)c1ccc(F)cc1)O2
 : 1.0	2.8
COc1ccc2[nH]c(C)c(CCN(Cc3cccs3)C(=S)Nc3cccc(C)c3)c2c1
 : .	-4.9
O=C(CN1C(=O)N(c2ccc(Cl)cc2)S(=O)(=O)c2ccccc21)N1CCCc2ccccc21
 : -0.4	-8.2
Cc1noc(C)c1S(=O)(=O)Nc1ccc2c(c1)C(=O)N([C@@H](C)CO)C[C@H](C)[C@@H](CN(C)C(=O)Nc1ccc(C(F)(F)F)cc1)O2
 : 1.3	2.2
C[C@@H]1CN([C@H](C)CO)C(=O)c2cccc(NC(=O)Nc3ccccc3)c2O[C@@H]1CN(C)C(=O)Nc1ccc(F)cc1
 : .	-2.9
c1ccc(C2=N[C@H](c3ccccc3)[C@H](c3ccccc3)N2)cc1
 : -0.6	8.4
C[C@@H]1CN([C@H](C)CO)C(=O)c2cccc(NS(=O)(=O)c3cccs3)c2O[C@@H]1CN(C)S(=O)(=O)c1cccs1
 : .	-1.1
COC(=O)N1N=C(CC(C)C)CC1(O)C(F)(F)F (stereo not given)
 : 1.1	0.4
CCn1cc(C(=O)NN)c(=O)c2cc(F)c(N3CCCC3)cc21
 : 0.0	-2.8
C[C@H](CO)N1C[C@H](C)[C@@H](CN(C)Cc2ccc(Cl)c(Cl)c2)Oc2ccc(N(C)C)cc2C1=O
 : 0.4	-2.0
C[C@@H]1CN([C@H](C)CO)C(=O)c2cccc(NS(=O)(=O)c3cn(C)cn3)c2O[C@H]1CN(C)Cc1ccncc1
 : .	4.9
COc1ccccc1N(CN1CCCC1=O)C(=O)COc1ccccc1
 : .	-0.2
C[C@@H]1CN([C@H](C)CO)C(=O)c2cc(NC(=O)C3CCCCC3)ccc2O[C@H]1CN(C)S(=O)(=O)c1ccc(F)cc1
 : -0.3	-1.5
C[C@@H]1CN([C@H](C)CO)C(=O)c2cc(NC(=O)Cc3cn(C)c4ccccc34)ccc2O[C@H]1CN(C)S(=O)(=O)c1ccccc1
 : 0.0	-1.9
C[C@@H]1CN([C@@H](C)CO)C(=O)c2cccc(NS(=O)(=O)c3ccc(Cl)cc3)c2O[C@H]1CN(C)C(=O)Nc1cccc2ccccc12
 : .	3.3
C[C@H]1CN([C@@H](C)CO)C(=O)c2cc(NC(=O)C3CC3)ccc2O[C@@H]1CN(C)C(=O)Nc1cccc2ccccc12
 : 0.5	-1.8
C[C@H]1CN([C@@H](C)CO)C(=O)c2cccc(NC(=O)C3CC3)c2O[C@@H]1CN(C)Cc1ccccc1
 : .	-2.2
CC(C)NC(=O)N(C)C[C@H]1Oc2ccc(NS(=O)(=O)c3cccs3)cc2C(=O)N([C@H](C)CO)C[C@@H]1C
 : 0.9	-4.1
C=CCN1C(=O)C(C(C)CC)NC1=S (stereo not given)
 : 1.6	-12
COc1ccc(CN(C)C[C@@H]2Oc3ccc(NS(=O)(=O)c4ccc(C)cc4)cc3C(=O)N([C@@H](C)CO)C[C@H]2C)cc1
 : 0.0	-0.7
c1ccc2cc(OCCN3CCOCC3)ccc2c1
 : -1.3	1.9
C[C@H](CO)N1C[C@H](C)[C@@H](CN(C)Cc2ccc(C(F)(F)F)cc2)Oc2ccc(NC(=O)Nc3ccc(C(F)(F)F)cc3)cc2C1=O
 : -0.7	-2.9
CNC[C@@H]1Oc2ccc(NS(=O)(=O)c3ccccc3)cc2C(=O)N([C@H](C)CO)C[C@H]1C
 : -0.1	0.8
Cc1cc(C)c(C#N)c(SCC(=O)C2CC2)n1
 : 0.1	-5.9
Cc1ccc(C23CC4CC(CC(CN)(C4)C2)C3)cc1C
 : 4.3	16
C[C@H]1CN([C@@H](C)CO)C(=O)c2cccc(NS(C)(=O)=O)c2O[C@H]1CN(C)C
 : .	-1.0
C[C@H](CO)N1C[C@H](C)[C@H](CN(C)Cc2ccc(Oc3ccccc3)cc2)Oc2ccc(NS(=O)(=O)c3ccccc3)cc2C1=O
 : 0.4	1.5
CCN(Cc1ccccc1)C(=O)N1CCOCC1
 : 0.7	-3.2
COc1ccc(S(=O)(=O)N(C)C[C@H]2Oc3c(NC(=O)Nc4ccc(F)cc4)cccc3C(=O)N([C@H](C)CO)C[C@H]2C)cc1
 : .	-2.5
C[C@H]1CN([C@@H](C)CO)C(=O)c2cccc(NC(=O)c3ccc(-c4nccs4)cc3)c2O[C@H]1CN(C)Cc1ccc2c(c1)OCO2
 : .	3.8
CC(C)(C)C(=S)Nc1cccc(Cl)c1
 : 0.0	0.1
C[C@H](CO)N1C[C@H](C)[C@H](CN(C)S(=O)(=O)c2ccc(F)cc2)Oc2ccc(NC(=O)NC3CCCCC3)cc2C1=O
 : -0.2	-3.6
CC1CCCN(C(=O)CCNS(=O)(=O)c2ccc3c(c2)c(=O)n(C)c(=O)n3C)C1 (stereo not given)
 : .	2.6
CC(NS(=O)(=O)N(C)C)c1ccccc1 (stereo not given)
 : 0.6	2.7
CCC(=O)N1CCc2cc(Br)cc(S(=O)(=O)CCC(=O)NCC3CCCO3)c21 (stereo not given)
 : .	0.1
CC(C)CCNc1ncnc2c1sc1nc3c(cc12)COC(C)(C)C3
 : -0.8	-3.4
C=CCN1C(=O)C(Cc2cccc(Cl)c2)SC1=Nc1ccc(C(=O)O)cc1 (stereo not given)
 : 0.1	-4.8
COc1ccc(CC(=O)NN2CCN(c3ccccc3)CC2)cc1
 : -0.6	-0.1
C[C@H]1CN([C@@H](C)CO)C(=O)c2cc(N(C)C)ccc2O[C@@H]1CN(C)Cc1ccc(Cl)c(Cl)c1
 : -0.3	-0.7
COc1ccc(S(=O)(=O)Nc2cccc3c2O[C@@H](CN(C)Cc2ccc(C(F)(F)F)cc2)[C@@H](C)CN([C@@H](C)CO)C3=O)cc1
 : .	-4.0
CC12CC3CC(C1)CC(NC(=O)c1ccc(Cl)cc1Cl)(C3)C2
 : 0.0	1.2
Cc1cc(C)c2c(N)c(C(=O)Nc3ccccc3)sc2n1
 : -2.6	-3.8
Cc1cc(C(=O)Nc2cccc3c2O[C@H](CN(C)S(=O)(=O)c2ccc(F)cc2)[C@H](C)CN([C@H](C)CO)C3=O)n(C)n1
 : .	1.3
C[C@@H]1CN([C@@H](C)CO)C(=O)c2cc(NS(=O)(=O)c3ccc(Cl)cc3)ccc2O[C@@H]1CN(C)S(=O)(=O)c1ccc(F)cc1
 : -0.5	-2.8

Continued.
Fields – A1 inhib	BJeLR viab HTS
O=C(NC1CCN(Cc2cccc3ccccc23)CC1)c1ccccc1
 : -0.2	4.6
C[C@@H]1CN([C@@H](C)CO)C(=O)c2cc(NS(=O)(=O)c3ccc(F)cc3)ccc2O[C@@H]1CN(C)C(=O)Nc1ccc(F)cc1
 : 0.2	0.9
CCc1cccc(NC(=O)C2CCCN(S(=O)(=O)c3cccnc3)C2)c1 (stereo not given)
 : .	-2.3
Cc1ccc(S(=O)(=O)N(C)C[C@@H]2Oc3c(NC(=O)NC(C)C)cccc3C(=O)N([C@H](C)CO)C[C@@H]2C)cc1
 : .	-4.6
COc1ccc(CN(C)C[C@H]2Oc3ccc(NS(=O)(=O)c4ccc(Cl)cc4)cc3C(=O)N([C@H](C)CO)C[C@@H]2C)cc1
 : 0.5	-4.5
O=C(C1CCC1)N1CCN(c2ccnc3cc(Cl)ccc23)CC1
 : -0.3	-7.7
Cc1ccc(S(=O)(=O)N(C)C[C@H]2Oc3ccc(NC(=O)Cc4ccccc4)cc3C(=O)N([C@@H](C)CO)C[C@H]2C)cc1
 : 0.2	3.0
Cc1noc(C)c1S(=O)(=O)N(C)C[C@@H]1Oc2ccc(NS(=O)(=O)c3ccc(Cl)cc3)cc2C(=O)N([C@@H](C)CO)C[C@@H]1C
 : 0.3	0.7
COc1c2c(c(CSc3nnnn3-c3ccccc3)c(OC)c1OC)C(=O)OC2
 : 0.3	3.5
C[C@@H]1CN([C@@H](C)CO)C(=O)c2cc(NC(=O)Cc3cn(C)c4ccccc34)ccc2O[C@@H]1CN(C)S(=O)(=O)c1cccs1
 : -1.6	-2.9
Oc1ccccc1C=Nc1ccccc1C(F)(F)F
 : 0.4	-0.3
CCCCN(C(C)C)S(=O)(=O)c1ccc(C)cc1
 : 0.0	0.7
Cc1ccc(S(=O)(=O)Nc2ccc3c(c2)C(=O)N([C@H](C)CO)C[C@@H](C)[C@H](CN(C)CC2CC2)O3)cc1
 : -0.5	-6.2
COc1cc(CN(C(=S)NCC(=O)O)C2CCCC2)cc(OC)c1OC
 : -0.2	-0.9
C[C@H](CO)N1C[C@H](C)[C@H](CN(C)Cc2ccc(C(=O)O)cc2)Oc2c(NC(=O)c3nc4ccccc4s3)cccc2C1=O
 : .	0.1

4 of the compounds above, as tab-separated lines:
molecule	A1 inhib	BJeLR viab HTS
O=C(NC1CCN(Cc2cccc3ccccc23)CC1)c1ccccc1	-0.2	4.6
C[C@@H]1CN([C@@H](C)CO)C(=O)c2cc(NS(=O)(=O)c3ccc(F)cc3)ccc2O[C@@H]1CN(C)C(=O)Nc1ccc(F)cc1	0.2	0.9
CCc1cccc(NC(=O)C2CCCN(S(=O)(=O)c3cccnc3)C2)c1 (stereo not given)	.	-2.3
Cc1ccc(S(=O)(=O)N(C)C[C@@H]2Oc3c(NC(=O)NC(C)C)cccc3C(=O)N([C@H](C)CO)C[C@@H]2C)cc1	.	-4.6

(further entries)
Fields – A1 inhib	BJeLR viab HTS
C[C@H]1CN([C@@H](C)CO)C(=O)c2cccc(NS(C)(=O)=O)c2O[C@@H]1CN(C)C(=O)NC1CCCCC1
 : .	2.1
CCCC(=O)N1CCC(c2ccc(OC)cc2)=N1
 : 0.6	-0.8
COCCN(C(=O)Nc1ccc(Cl)c(Cl)c1)C1CCN(C(C)C)CC1
 : 0.4	4.8
CCC(C)OC(=O)COc1ccc2c(=O)c(Oc3cc(C)ccc3C)coc2c1 (stereo not given)
 : -0.2	0.7
C[C@H](CO)N1C[C@H](C)[C@@H](CN(C)Cc2ccc(Cl)c(Cl)c2)Oc2ccc(NC(=O)Nc3cccc4ccccc34)cc2C1=O
 : -0.5	-3.9
C[C@H](CO)N1C[C@H](C)[C@@H](CN(C)S(=O)(=O)c2cccs2)Oc2c(NC(=O)Nc3ccccc3)cccc2C1=O
 : .	2.0
O=C(COc1ccc(Cl)cc1)NCc1ccc2[nH]c3c(c2c1)CCCC3
 : .	-6.0
C[C@@H]1CN([C@H](C)CO)C(=O)c2cc(NC(=O)c3ccncc3)ccc2O[C@H]1CN(C)CC1CCCCC1
 : 0.2	-0.2
CC(C)NC(=O)c1ccc(N2CCCC2=O)cc1
 : .	6.7
C[C@H]1CN([C@@H](C)CO)C(=O)c2cc(NC(=O)CCC(F)(F)F)ccc2O[C@H]1CN(C)S(=O)(=O)c1cccs1
 : 0.4	6.9
C[C@@H]1CN([C@H](C)CO)C(=O)c2cc(NC(=O)C3CC3)ccc2O[C@@H]1CN(C)S(=O)(=O)c1ccccc1
 : 0.4	4.4
C[C@H]1CN([C@@H](C)CO)C(=O)c2cccc(NS(=O)(=O)c3cn(C)cn3)c2O[C@@H]1CN(C)S(=O)(=O)c1cn(C)cn1
 : .	-1.3
O=C1CCCN2N=C(SCc3ccc(C(F)(F)F)cc3)SC2=N1
 : -1.3	-4.4
C[C@H]1CN([C@@H](C)CO)C(=O)c2cc(NS(=O)(=O)c3ccc(F)cc3)ccc2O[C@@H]1CN(C)S(=O)(=O)c1ccc(F)cc1
 : 0.3	-0.3
